High-throughput results as filed in PubChem.
DUX4 inh – DUX4-mediated transcription inhibition; 0.8% of 37,000 active; activity change, negative = inhibition, % (concentration not given with the values); AID 1224904; 293T-iDUX4 ZSCAN4-Gaussia luciferase reporter, 24 h; stronger effect = lower value;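 active = -10% or lower and over 25 points stronger than a control reporter; inconclusive = -10% or lower with a smaller gap; inactive = above -10%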;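 also: 0% = median of neutral control wells and -100% = median of positive control wells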
DUX4 inh difference – recorded beside DUX4 inh, whose call it bears; Gaussia minus Italica difference, %; measured here: selective DUX4 reporter inhibition;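 worked out from the two reporters; negative = selective loss of the DUX4 reporter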
DUX4 inh control – recorded beside DUX4 inh, whose call it bears; activity change, negative = inhibition, %; measured here: Italica tet-on control reporter;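 0 = neutral control and -100 = positive control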
Starred values were filed as active, the others as inactive; u = inconclusive; x = no result given; & = joins results of further samples.

Compound,DUX4 inh,DUX4 inh difference,DUX4 inh control
COc1ccc(S(=O)(=O)N(C)C[C@H]2OCc3ccccc3-c3ccccc3C(=O)N([C@H](C)CO)C[C@@H]2C)cc1,4,1,3.7
CC=Cc1ccc2n(c1=O)C[C@H]1[C@H](CO)[C@@H](C(=O)NCc3ccc(F)cc3)[C@@H]2N1CCC (mixture of isomers),-4,-5,0.4
Cc1noc(C)c1S(=O)(=O)N(C)C[C@@H]1OCCCC[C@@H](C)Oc2ccc(NS(=O)(=O)c3cn(C)cn3)cc2C(=O)N([C@@H](C)CO)C[C@H]1C,0,-1,0.9
CCC(=O)NC[C@H]1[C@@H](c2ccc(C3=CCCC3)cc2)[C@@H](CO)N1C(C)=O,3,-7,9.8
CO[C@H]1CN(C)C(=O)c2cc(NC(=O)c3cnccn3)ccc2OC[C@@H](C)N(C)C[C@H]1C,-3,-1,-2.5
C/C=C/c1ccc2c(c1)O[C@H](CN(C)C(=O)Cc1cccnc1)[C@H](C)CN([C@H](C)CO)S2(=O)=O,0,0,-0.1
CN(C)C(=O)c1ccc(-c2ccccc2[C@H]2[C@H](C#N)N(C(=O)C3CC3)[C@H]2CO)cc1,18,6,12
CC=Cc1ccc2n(c1=O)C[C@@H]1[C@@H](CO)[C@H](C(=O)NCC(F)(F)F)N(C(=O)c3cccnc3)[C@H]21 (mixture of isomers),4,-2,6.0
COCC(=O)N1CC2(CCN(Cc3ccc(Cl)cc3)CC2)c2c([nH]c3cc(OC)ccc23)[C@@H]1CO,u,x,x
COCC(=O)N1CC2(CN(C(=O)NC(C)C)C2)c2c(n(C)c3cc(OC)ccc23)[C@H]1CO,11,-4,15
O=C(Cc1ccccc1)N1CC(=O)N2[C@H](CO)[C@H](c3ccc(Br)cc3)[C@@H]2C1,0,-10,9.6
C[C@@H]1CCCCO[C@H](CN(C)C(=O)CCC(F)(F)F)[C@@H](C)CN([C@H](C)CO)C(=O)c2cc(NC(=O)C3CCCCC3)ccc2O1,-3,0,-2.7
N#C[C@@H]1[C@@H](c2ccccc2-c2ccccc2F)[C@H](CO)N1C(=O)C1CC1,6,10,-4.5
C/C=C/c1ccc([C@H]2[C@@H](CO)N(C(=O)NCCC)[C@H]2CN(C)C(C)=O)cc1,-3,-11,8.3
COc1ccc2c3c(n(C)c2c1)[C@H](CO)N(Cc1ccncc1)CC31CCN(C(=O)Cc2ccncc2)CC1,-4,6,-9.7
O=C(NCC1CC1)[C@H]1[C@H](CO)[C@H]2Cn3c(ccc(C4=CCCC4)c3=O)[C@H]2N1C(=O)C1CC1,0,1,-1.1
Cc1ccc(S(=O)(=O)NCC[C@H]2CC[C@H](NC(=O)c3cccnc3)[C@@H](CO)O2)cc1,6,6,0.8
N#C[C@@H]1[C@@H](c2ccc(C3=CCCCC3)cc2)[C@@H](CO)N1C(=O)Cc1ccncc1,1,0,1.0
COCCN(C[C@@H]1[C@@H](c2ccccc2)[C@@H](CO)N1C(C)=O)C(=O)c1cccnc1,-1,0,-0.5
C[C@H](CO)N1C[C@H](C)[C@@H](CN(C)Cc2ccccc2C(=O)O)Oc2ncc(C#CC3CC3)cc2C1=O,-1,-2,0.8
O=C([C@H]1[C@H](CO)[C@H]2Cn3c(ccc(-c4ccncc4)c3=O)[C@H]2N1CCC(F)(F)F)N1CCCCC1,-2,-6,4.2
C[C@@H]1CN([C@@H](C)CO)C(=O)CCCn2cc(nn2)CO[C@H]1CN(C)S(=O)(=O)c1ccc(-c2ccccc2)cc1,-9,-2,-6.5
CNC(=O)C[C@H]1CC[C@@H]2[C@@H](COc3ccc(NC(=O)NCc4ccccc4)cc3C(=O)N2C)O1,-4,-1,-3.1
O=C(c1ccccn1)N1CC(=O)N2[C@H](C1)[C@@H](c1ccc(C#CC3CCCC3)cc1)[C@@H]2CO,-6,1,-7.0
O=C(C1CCCC1)N1CCCCN2[C@H](CO)[C@H](c3ccc(C4=CCCC4)cc3)[C@@H]2C1,-7,-2,-5.0
C[C@H](CO)N1C[C@H](C)[C@@H](CN(C)C(=O)c2cc(Cl)cc(Cl)c2)OCc2ccccc2-c2c(n(C)c3ccccc23)C1=O,13,16,-3.0
CO[C@@H]1CN(C)C(=O)c2cc(NC(=O)CC(F)(F)F)ccc2OC[C@H](C)N(S(=O)(=O)c2cn(C)cn2)C[C@@H]1C,5,4,1.3
N#C[C@H]1[C@H](c2ccccc2-c2ccccc2)[C@H](CO)N1C(=O)NC1CCCC1,u,x,x
O=C(c1ccc(F)cc1)N1CC[C@@H]2[C@H](CO)Nc3ccc(C#Cc4ccc(F)cc4)cc3[C@@H]21,-20*,-32*,12*
COc1ccccc1C#Cc1ccc2c(c1)[C@@H]1NCC[C@@H]1[C@H](CO)N2,-23*,-25*,2.8*

An excerpt from above in order of their number in DUX4 inh control, largest number first:
Compound,DUX4 inh,DUX4 inh difference,DUX4 inh control
O=C(c1ccc(F)cc1)N1CC[C@@H]2[C@H](CO)Nc3ccc(C#Cc4ccc(F)cc4)cc3[C@@H]21,-20*,-32*,12*
C[C@H](CO)N1C[C@H](C)[C@@H](CN(C)Cc2ccccc2C(=O)O)Oc2ncc(C#CC3CC3)cc2C1=O,-1,-2,0.8
O=C(NCC1CC1)[C@H]1[C@H](CO)[C@H]2Cn3c(ccc(C4=CCCC4)c3=O)[C@H]2N1C(=O)C1CC1,0,1,-1.1

Continuation:
Compound,DUX4 inh,DUX4 inh difference,DUX4 inh control
CCCN1C[C@H](C)[C@H](OC)CN(C)C(=O)c2cc(NC(=O)NC3CCCCC3)ccc2OC[C@H]1C,0,3,-2.1
Cc1cc(C(=O)Nc2ccc3c(c2)C(=O)N(C)[C@H]2CC[C@@H](CC(=O)NC4CCCC4)O[C@@H]2CO3)no1,5,2,2.3
COc1ccc2c3c(n(C)c2c1)[C@@H](CO)N(C(=O)C1CC1)CC31CN(C(=O)C2CCOCC2)C1,9,7,2.0
COc1ccc2c3c([nH]c2c1)[C@@H](CO)N(C(C)=O)CC31CCN(C(C)=O)CC1,14,4,11
CC(C)C#Cc1ccc([C@H]2[C@H]3CN(Cc4ccccn4)CCCCN3[C@H]2CO)cc1,16,15,1.5
C[C@@H]1CN([C@H](C)CO)C(=O)c2ccccc2-c2ccccc2CO[C@@H]1CN(C)S(C)(=O)=O,1,2,-1.2
CC(=O)NC[C@@H]1[C@H](c2ccccc2)[C@@H](CO)N1C(=O)Cc1cccnc1,2,3,-0.4
O=C(NC[C@H]1[C@H](c2ccccc2)[C@@H](CO)N1C(=O)Cc1ccncc1)C1CCC1,-3,1,-4.1
O=C(CC1CC1)N1[C@H](CO)[C@H]2c3ccccc3N(S(=O)(=O)c3ccccc3)C[C@H]21,1,3,-1.9
O=C(C1CCCC1)N1CC2(C1)[C@H](c1ccccc1)[C@H](CO)N2CCC(F)(F)F,-1,-3,2.8
Cc1cccc(S(=O)(=O)N[C@H]2CC[C@H](CCn3cc(-c4ccccn4)nn3)O[C@@H]2CO)c1,2,2,-0.2
O=C(C1CCOCC1)N1C[C@H]2[C@@H](c3ccccc31)[C@@H](CO)N2Cc1ccccc1,0,-3,3.2
COc1ccc2c3c([nH]c2c1)[C@@H](CO)N(C(=O)c1ccccc1)CC31CCN(C(=O)NC(C)C)CC1,u,x,x
COc1ccc(-c2ccc([C@H]3[C@@H](CO)N4C(=O)CN(Cc5ccc(F)cc5)C[C@@H]34)cc2)cc1,-2,-8,5.8
CC(=O)N1CC2(C1)[C@@H](c1ccc(-c3ccc(F)cc3)cc1)[C@@H](CO)N2C(C)=O,1,3,-1.9
Cc1ccccc1S(=O)(=O)N1C[C@H](O)COC[C@H]2O[C@@H](CC(=O)N3CCC(Cc4ccccc4)CC3)CC[C@@H]21,u,x,x
COc1cccc(CN(C)C[C@@H]2OCc3ccccc3-c3ccccc3C(=O)N([C@@H](C)CO)C[C@@H]2C)c1,1,-7,7.9
CC(=O)N1[C@H](CO)[C@H](c2ccccc2)[C@H]1CN(C(=O)c1ccccc1F)C(C)C,2,2,-0.2
CN1C[C@@H]2[C@H](c3ccccc31)[C@@H](CO)N2C(=O)CN1CCOCC1,-2,0,-1.8
CC=Cc1ccc2n(c1=O)C[C@H]1[C@H](CO)[C@@H](C(=O)NCC3CCCCC3)N(C(=O)CC)[C@@H]21 (mixture of isomers),-3,2,-4.3
CO[C@H]1CN(C)C(=O)c2ccc(NC(=O)C3CC3)cc2OC[C@H](C)N(C(=O)c2ccccc2F)C[C@H]1C,-5,-2,-2.5
COc1ccc(NC(=O)N(C)C[C@@H]2OCCCC[C@H](C)Oc3ccc(NS(=O)(=O)c4cccs4)cc3C(=O)N([C@H](C)CO)C[C@@H]2C)cc1,3,1,2.4
Cc1noc(C)c1S(=O)(=O)Nc1ccc2c(c1)C(=O)N([C@@H](C)CO)C[C@@H](C)[C@H](CN(C)C(=O)Nc1ccc3c(c1)OCO3)OCCCC[C@@H](C)O2,3,1,2.4
CCCN(C)C[C@H]1OCCCC[C@@H](C)Oc2ccc(N(C)C)cc2C(=O)N([C@@H](C)CO)C[C@H]1C,2,-3,5.7
O=C(C1CC1)N1C[C@H]2[C@@H](c3ccccc31)[C@@H](CO)N2C(=O)c1ccccc1,4,-2,6.0
COc1cccc(C(=O)Nc2ccc3c(c2)C(=O)N(C)[C@H]2CC[C@H](CC(=O)NCc4ccc(F)cc4)O[C@@H]2CO3)c1,3,-3,5.5
COc1ccc(OC(=O)N(C)C[C@@H]2OCc3ccccc3-c3ccccc3C(=O)N([C@H](C)CO)C[C@@H]2C)cc1,-4,-7,3.7
C[C@@H]1CN([C@H](C)CO)C(=O)CCCn2nncc2CO[C@@H]1CN(C)C(=O)Nc1cccc2ccccc12,3,0,3.5
COc1ccc2c3c(n(C)c2c1)[C@H](CO)N(C(=O)NC1CCCC1)CC31CN(C)C1,12,1,11
C[C@H](CO)N1C[C@H](C)[C@@H](CN(C)Cc2cccc(F)c2)Oc2cc(-c3ccc(C#N)cc3)ccc2S1(=O)=O,-8,-3,-4.2

An excerpt taken from the entries so far:
Compound,DUX4 inh,DUX4 inh difference,DUX4 inh control
COc1ccc(S(=O)(=O)N(C)C[C@H]2OCc3ccccc3-c3ccccc3C(=O)N([C@H](C)CO)C[C@@H]2C)cc1,4,1,3.7
CC=Cc1ccc2n(c1=O)C[C@H]1[C@H](CO)[C@@H](C(=O)NCc3ccc(F)cc3)[C@@H]2N1CCC (mixture of isomers),-4,-5,0.4
Cc1noc(C)c1S(=O)(=O)N(C)C[C@@H]1OCCCC[C@@H](C)Oc2ccc(NS(=O)(=O)c3cn(C)cn3)cc2C(=O)N([C@@H](C)CO)C[C@H]1C,0,-1,0.9

Next entries.
Compound,DUX4 inh,DUX4 inh difference,DUX4 inh control
O=C(N[C@H]1CC[C@H](CCNS(=O)(=O)c2ccc(Cl)cc2)O[C@H]1CO)c1ccccn1,5,5,0.0
CNC[C@@H]1Oc2ncc(C#Cc3cccc(OC)c3)cc2C(=O)N([C@H](C)CO)C[C@@H]1C,-3,-3,0.7
O=C(Nc1ccccc1Cl)N1[C@@H]2CNC[C@H]1C2c1ccc(-c2ccccc2)cc1 (stereo partly specified),9&3,4&3,5.4&0.1
CN1CCN(C(=O)C[C@@H]2CC[C@@H]3[C@H](COC[C@H](O)CN3CC3CCOCC3)O2)CC1,8,-4,12
COCC(=O)N1[C@H](CO)[C@H](c2ccccc2)C12CN(C(=O)c1cccnc1)C2,11,3,7.3
COCC(=O)Nc1ccc2c(c1)C(=O)N(C)[C@H]1CC[C@H](CC(=O)NCCc3ccccc3)O[C@@H]1CO2,1,-3,4.6
COc1ccc(S(=O)(=O)N(C)C[C@H]2Oc3c(cccc3N(C)C)C(=O)N([C@@H](C)CO)C[C@@H]2C)cc1,-1,0,-1.2
C[C@H](NC(=O)N(C)C[C@H]1OCc2ccccc2-c2ccccc2C(=O)N([C@@H](C)CO)C[C@@H]1C)c1ccccc1,-9,-8,-1.3
O=C(C[C@@H]1C[C@@H]2c3cc(NC(=O)Nc4ccc(C(F)(F)F)cc4)ccc3O[C@@H]2[C@H](CO)O1)NCC1CC1,-3,-13,10
CCNC(=O)[C@H]1[C@H](CO)[C@H]2Cn3c(ccc(-c4ccccc4F)c3=O)[C@H]2N1C(C)=O,10,4,6.7
CC(C)C(=O)Nc1ccc2c(c1)C(=O)N(C)[C@H]1CC[C@@H](CC(=O)NCc3ccc(F)cc3)O[C@H]1CO2,-2,-1,-0.8

An excerpt from above in order of molar mass, rising.
Compound,DUX4 inh,DUX4 inh difference,DUX4 inh control
COCC(=O)N1[C@H](CO)[C@H](c2ccccc2)C12CN(C(=O)c1cccnc1)C2,11,3,7.3
CNC[C@@H]1Oc2ncc(C#Cc3cccc(OC)c3)cc2C(=O)N([C@H](C)CO)C[C@@H]1C,-3,-3,0.7
CN1CCN(C(=O)C[C@@H]2CC[C@@H]3[C@H](COC[C@H](O)CN3CC3CCOCC3)O2)CC1,8,-4,12
CC(C)C(=O)Nc1ccc2c(c1)C(=O)N(C)[C@H]1CC[C@@H](CC(=O)NCc3ccc(F)cc3)O[C@H]1CO2,-2,-1,-0.8

Only part of the results is shown, so the mix of outcomes need not match the whole.
